MLL AF4-AF9 inh: inhibitors of AF4 peptide binding to AF9, primary screen, biochemical, AlphaScreen, biotin-AF4 peptide, FLAG-AF9, single point; Protein AF-9 (Homo sapiens), P42568; inhibition, % at 10 µM; 0.47% of 350,000 active; AID 651704, 2012;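 active = every replicate reaching a set inhibition limit, whatever the replicate mean, cut at about 25% in these data; inconclusive = mean inhibition reaches that limit but some replicates miss it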;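 note: 0% = plate neutral control median and 100% = total signal loss; the record names both 10 and 1 µM as test concentration; the first replicate is given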
T cruzi inh: inhibitors of intracellular T. cruzi growth, primary screen, luminescence, NIH3T3 host cells. T. cruzi beta-gal in NIH3T3, 90 h. inhibition, % (test concentration not listed). 1.4% of 300,000 active. AID 1885, 2009;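 active = mean inhibition across valid replicates above about 55%, limit read from the data; inconclusive = mean below that limit but half or more replicates reach it; inactive = mean below it, under half of replicates reach it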;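 note: signal also drops with host cell toxicity which is not excluded here; 0% = plate median of DMSO wells and 100% = zero luminescence signal; higher percent means less beta-gal luminescence so fewer parasites; stock transfer was 50 nL into about 50 µL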
Beta apoptosis: inhibitors of cytokine-induced beta cell apoptosis, primary screen, luminescence; 0.8% of 300,000 active; protection from apoptosis, % (test concentration not listed); INS-1E cytokine-induced death, ATP luminescence, 48 h; percent of positive-control rescue, neutral wells zero; AID 435005, 2010;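 active = all replicates at 75% or more, or half of them and the mean; inconclusive = half reach 75% but not the mean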;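 note: 0% = cytokine-treated negative control wells and 100% = positive control rescue; higher means more ATP so stronger rescue from cytokine killing; wells of about 40 µL received 100 nL stock; the first replicate is given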
RanGTP-Imp inh: inhibitors of RanGTP-importin-beta interaction, primary screen, biochemical, FRET, CFP-Ran, YFP-importin-beta, homogeneous; Ran GTPase (GTP-bound) - importin-beta complex; cell-free CFP-Ran/YFP-importin-beta FRET ratio; inhibition, % (test concentration not listed); 1.1% of 300,000 active; AID 2216, 2009;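 active = most replicates above 15%; inconclusive = exactly half above 15%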;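 note: 0% = DMSO wells and 100% = Ran loaded with GDP instead of GTP; wells of about 40 µL received 100 nL stock; the first replicate is given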
A1 inh: caspase 3/7 activation in MEF A1-2A-BIM cells, primary screen, A1 inhibitor project, cell-based, luminescence, HTS. Caspase-Glo 3/7 luminescence, 3 h; percent of clofoctol response, vehicle zero. caspase activation, % (no concentration beside the values). AID 2462, 2010. 0.066% of 330,000 active;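 active = over half of replicate activation scores above 10%, or exactly half above 10 with the replicate mean above 10; inconclusive = replicate mean below 10 yet half the replicates above 10; inactive = over half of replicates below 10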;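 note: wells of about 30 µL received 50 nL stock; many hits fall short of the cut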
Vif TR-FRET: inhibitors of Vif binding to APOBEC3G peptide, primary screen, biochemical, TR-FRET, GST-Vif 1-94, biotin-A3G peptide, dose response retest (AID 1117319) | 0.57% of 260,000 active | one-dose inhibition, %; IC50 in µM for titrated hits | Virion infectivity factor (Human immunodeficiency virus type 1 group M subtype B (isolate … | TR-FRET GST-Vif / biotin-A3G peptide binding; higher % means a stronger effect; test concentration not given here; strong numbers were not always called active;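 active = above the screen mean plus three standard deviations and confirmed in dose response; inconclusive = results disagree or hit not tested in dose response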;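 note: Vif residues 1-94 fused to GST binding biotinylated APOBEC3G peptide 110-148; 0% = full assay without inhibitor and 100% = GST in place of GST-Vif; retest series ran down from 100 µM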
LANA-H2B inh: blockers of LANA interaction with H2A/H2B – biochemical, FP readout, HTS, primary screen; cell-free LANA-H2A/H2B peptide, fluorescence polarization; inhibition, % (concentration not given with the values); 0.6% of 320,000 active; Protein LANA1 (Human herpesvirus 8 type P (isolate GK18)), Q9QR71; in the data active = inhibition mostly above about 10%, no sharp cut-off; inactive = mostly below about 6.7%;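 note: stock transfer was 7.5 nL into about 10 µL; 0% = median of vehicle wells and 100% = median of positive control wells; one replicate is shown; the record names a cut of 25% in any replicate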
Target sequence (Q9QR71 whole entry, looked up): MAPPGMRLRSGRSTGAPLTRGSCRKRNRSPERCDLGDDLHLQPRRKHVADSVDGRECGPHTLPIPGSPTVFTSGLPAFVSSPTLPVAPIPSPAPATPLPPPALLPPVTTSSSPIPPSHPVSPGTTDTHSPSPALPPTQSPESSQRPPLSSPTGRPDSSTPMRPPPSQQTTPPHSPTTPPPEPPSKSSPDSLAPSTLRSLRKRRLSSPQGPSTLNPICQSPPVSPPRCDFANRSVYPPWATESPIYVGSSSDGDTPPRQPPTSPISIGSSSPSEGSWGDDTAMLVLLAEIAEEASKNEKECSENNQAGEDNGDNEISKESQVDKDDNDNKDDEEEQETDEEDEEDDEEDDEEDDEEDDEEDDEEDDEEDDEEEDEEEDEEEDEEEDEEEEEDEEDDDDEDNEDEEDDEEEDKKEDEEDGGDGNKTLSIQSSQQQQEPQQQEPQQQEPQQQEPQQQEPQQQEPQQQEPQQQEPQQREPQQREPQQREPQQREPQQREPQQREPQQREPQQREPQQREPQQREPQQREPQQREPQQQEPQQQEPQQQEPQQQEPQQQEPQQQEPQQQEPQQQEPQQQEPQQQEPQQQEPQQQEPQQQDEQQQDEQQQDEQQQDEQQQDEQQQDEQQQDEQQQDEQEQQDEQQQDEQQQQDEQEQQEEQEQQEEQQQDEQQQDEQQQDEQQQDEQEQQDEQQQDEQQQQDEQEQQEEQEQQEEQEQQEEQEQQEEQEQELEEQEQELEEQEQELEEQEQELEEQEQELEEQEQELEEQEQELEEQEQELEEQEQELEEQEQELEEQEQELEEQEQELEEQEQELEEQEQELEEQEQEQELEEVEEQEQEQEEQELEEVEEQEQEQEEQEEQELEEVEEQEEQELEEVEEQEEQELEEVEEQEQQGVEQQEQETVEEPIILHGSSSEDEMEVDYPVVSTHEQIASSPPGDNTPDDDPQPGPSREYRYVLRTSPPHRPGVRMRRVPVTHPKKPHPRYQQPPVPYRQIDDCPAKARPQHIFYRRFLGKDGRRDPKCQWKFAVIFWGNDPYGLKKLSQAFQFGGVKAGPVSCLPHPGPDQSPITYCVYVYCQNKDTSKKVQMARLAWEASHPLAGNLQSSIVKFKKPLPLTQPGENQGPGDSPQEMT
Calb FLC: C. albicans growth inhibition with fluconazole, primary screen, CaCi-2 strain, Alamar Blue fluorescence | C. albicans CaCi-2 (fluconazole-resistant clinical isolate) + fluconazole, 48 h | growth inhibition, % (no concentration beside the values) | 0.57% of 300,000 active;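 active = most replicates above 75%; inconclusive = exactly half above 75%; inactive = most below 75%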;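 note: all wells also contain fluconazole at 8 µg/ml as a sub-toxic cotreatment; 0% = median of DMSO wells and 100% = median of geldanamycin control wells; wells of about 8 µL received 7.5 nL stock; the first replicate is given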
An asterisk follows results filed as active; ? = inconclusive; . = not tested or not shown.

molecule	MLL AF4-AF9 inh	T cruzi inh	Beta apoptosis	RanGTP-Imp inh	A1 inh	Vif TR-FRET	LANA-H2B inh	Calb FLC
O=C(COC(=O)c1cc(S(=O)(=O)N2CCOCC2)ccc1F)NCc1ccc2c(c1)OCO2	-1.4	.	-4.5	.	-0.3	0.5%	-1.3	.
CCC(C(=O)OCC(=O)N(C)c1c(N)n(Cc2ccccc2)c(=O)[nH]c1=O)c1ccccc1 (stereo not drawn)	10.5	-2.9	2.6	-0.7	0.0	-1.4%	6.6	-0.8
Cc1cc(NS(C)(=O)=O)c(=O)n(Cc2cccc(F)c2)c1	-1.5	1.0	.	?	.	.	.	-11.4
O=C(COc1ccc(S(=O)(=O)N2CCCCC2)cc1Cl)N1CCOCC1	1.9	-3.2	-2.8	0.8	-0.1	.	-0.5	-3.0
CN(C)S(=O)(=O)c1cccc(NC(=O)COC(=O)c2cccn2C)c1	-6.8	-3.9	-18.6	2.1	-0.2	-7.4%	-0.8	-14.4
CCCCC(=O)Nc1ccc(NC(=S)NC(=O)CC(C)C)cc1OC	.	3.8	-3.8	0.9	0.0	0.8%	-1.0	0.3
Cc1ccc(N2CC(C(=O)NC3CC3)CC2=O)cc1Cl (stereo not drawn)	-2.2	-1.0	.	-1.5	-0.1	.	-4.9	-7.0
Brc1ccccc1-c1nnc2sc(-c3ccc4c(c3)OCCO4)nn12	.	-9.2	9.1	4.4	-1.0	-11.3%	6.6	62.0
CNC(=O)/C(=C\c1cccc(Oc2ccccc2)c1)NC(=O)c1ccccc1	.	-14.1	.	-1.6	2.3	-0.4%	1.2	-14.2
Cc1cc(OCCOCCN(C)C)ccc1Cl	2.2	36.1	3.7	-1.6	0.7	.	-2.7	-3.7
O=[N+]([O-])c1nn(-c2ccc3c(c2)OCCO3)n(O)c1=NCc1ccc(F)cc1	.	61.5*	1.9	3.1	-4.0	.	3.4	7.5
Cc1cccc(N2CCN(C(=O)CN(C)S(=O)(=O)c3ccc4c(c3)CCC(=O)N4)CC2)c1C	-3.2	11.0	-2.8	-1.7	-1.6	-3.4%	0.6	2.3
FC(F)(F)c1ccc(/C=N/n2c(COc3ccccc3)n[nH]c2=S)cc1	-1.7	3.1	14.4	-0.7	-0.7	-9.0%	7.9	-8.7
CS(=O)(=O)Nc1ccccc1C(=O)NCCSc1ccccc1	0.3	-3.8	-3.4	2.5	0.7	.	-2.7	8.9
Cc1ccc(-n2c(Cc3noc4ccccc34)n[nH]c2=S)cc1	-11.6	4.6	-2.1	0.6	1.2	-5.5%	-1.0	-3.8

An excerpt of these results, as labelled records:
SMILES: CCC(C(=O)OCC(=O)N(C)c1c(N)n(Cc2ccccc2)c(=O)[nH]c1=O)c1ccccc1 (stereo not drawn)
  MLL AF4-AF9 inh: 10.5
  T cruzi inh: -2.9
  Beta apoptosis: 2.6
  RanGTP-Imp inh: -0.7
  A1 inh: 0.0
  Vif TR-FRET: -1.4%
  LANA-H2B inh: 6.6
  Calb FLC: -0.8
SMILES: Cc1cccc(N2CCN(C(=O)CN(C)S(=O)(=O)c3ccc4c(c3)CCC(=O)N4)CC2)c1C
  MLL AF4-AF9 inh: -3.2
  T cruzi inh: 11.0
  Beta apoptosis: -2.8
  RanGTP-Imp inh: -1.7
  A1 inh: -1.6
  Vif TR-FRET: -3.4%
  LANA-H2B inh: 0.6
  Calb FLC: 2.3

(cont.)
molecule	MLL AF4-AF9 inh	T cruzi inh	Beta apoptosis	RanGTP-Imp inh	A1 inh	Vif TR-FRET	LANA-H2B inh	Calb FLC
CCC1(C)Cc2c(sc3c2c(=O)n(C)c2nnc(SCc4ccccc4)n32)CO1 (stereo not drawn)	.	27.3	-1.7	7.4	0.3	2.4%	-7.3	-3.1
Cn1cnnc1SC(C(=O)Nc1ccc(F)cc1)c1ccccc1 (stereo not drawn)	.	-21.6	-1.4	-1.8	0.5	-1.2%	-6.6	-9.4
COc1ccc(CCNC(=O)c2cccc(S(=O)(=O)NC(C)c3ccccc3)c2)cc1 (stereo not drawn)	1.2	.	-3.1	.	-0.6	5.8%	0.0	.
Cc1ccc(N=C(N(C)C)P(=O)(N(C)C)N(C)C)c(C)c1	0.1	-0.8	.	-2.1	-0.1	1.5%	2.1	-21.3
Cc1nn(-c2ccc(Cl)cc2)c(=O)c2c(C)noc12	-0.5	-4.6	-0.9	2.3	?	-8.7%	-1.3	2.2
COc1ccc(OC)c(C(=O)NC2CCSc3ccccc32)c1 (stereo not drawn)	1.0	10.7	4.0	-1.5	-0.3	.	4.5	10.6
COc1ccc(NC(=O)N2CCCCC2c2cccnc2)cc1 (stereo not drawn)	-3.0	66.4*	-14.3	-0.4	0.6	-14.5%	-3.8	-14.8
Cc1ccc(Sc2sc(=O)n(C)c2S(=O)(=O)c2ccc(C)cc2)cc1	-0.8	15.1	11.0	-2.8	-0.9	14.1%	3.3	5.8
O=C(CSc1nc2c(sc3ccccc32)c(=O)n1CCO)NCC1CCCO1 (stereo not drawn)	.	-10.7	-4.0	1.4	0.4	-10.8%	1.6	0.7
COc1ccc(/C(=N/OC(C)=O)c2nccc3cc(OC)c(OC)cc23)cc1OC	0.8	9.7	-8.9	-3.7	0.9	6.7%	-1.2	-18.4
O=C1CCCN1CC1CCN(Cc2nc(CC3CC3)no2)CC1	?	4.0	0.3	4.0	0.4	27.4%	-3.9	-2.8
Cc1ccc(CS(=O)(=O)CCC(=O)NCc2cccs2)cc1	.	7.9	8.4	2.9	1.1	3.2%	-4.7	2.5
O=C(Nc1cccc(Cl)c1N1CCOCC1)c1ccc([N+](=O)[O-])o1	4.5	41.9	-17.8	8.2	0.1	-1.9%	2.5	14.6
Cc1ccc(C2=NS(=O)(=O)N(C)C(C(=O)NC3CCCCC3)=C2)cc1	2.8	1.9	4.6	?	0.6	.	-2.6	-15.9
Cn1c(=O)cc(SCC(=O)Nc2cccnc2)c2ccccc21	.	-9.2	2.1	3.5	-0.2	21.0%	0.8	0.9
CSCCC(NS(=O)(=O)c1ccccc1F)C(=O)Nc1cccc(C)n1 (stereo not drawn)	-1.2	-11.7	.	?	0.5	.	0.6	-4.9
N#Cc1ccccc1NC(=O)c1ccc(-c2ccccc2Cl)o1	.	23.5	-6.8	1.5	1.0	-3.8%	2.3	-6.9
CCOc1c(Cl)cc(CNCc2ccccn2)cc1OC	5.7	-10.9	-0.2	-3.5	0.5	?	0.7	4.3
COc1c(Cl)cccc1-c1cn2ccccc2n1	-0.3	-3.3	29.7	-4.6	-8.4	-2.1%	-2.8	-2.6
COc1ccc(/C(C)=N\NC(=O)CNC(=O)C(c2ccccc2)c2ccccc2)cc1OC	-3.3	-10.4	-1.7	-3.8	-0.4	.	2.3	-15.9
COc1cc(C(=O)OCCNC(=O)c2ccncc2)cc(OC)c1OC	.	-10.0	0.0	1.0	0.0	.	0.7	2.0
CN1C(=S)SC(N(O)C(=O)Nc2cccc3ccccc23)C1(C)C (stereo not drawn)	.	9.5	1.5	3.3	0.9	-1.3%	1.9	-2.6
CCOC(=O)C1=C(COC(=O)COc2ccc(C(C)=O)cc2)NC(=O)NC1C (stereo not drawn)	-0.3	-3.4	-0.1	-2.8	0.2	-6.6%	-2.2	-4.6
CCOc1cc(NC(=O)C(C)C)c(OCC)cc1NC(=O)Nc1ccccc1	-1.2	6.6	-3.5	5.5	0.9	.	3.8	7.7
COc1ccc(C(NC(=O)c2ccco2)c2ccc(OC)c(OC)c2)cc1OC	-17.5	-6.5	-8.2	2.7	0.3	-8.0%	5.2	-8.7
O=C(Nc1ccc(Cl)c(S(=O)(=O)N2CCCC2)c1)c1cc(=O)[nH]c2ccccc12	3.2	.	-3.2	.	0.4	.	6.3	.
O=C(Nc1nnc(C2CC2)o1)c1ccc(S(=O)(=O)N2CCCCC2)cc1	4.2	-25.1	.	1.3	1.5	.	2.1	-1.7
COc1ccc(-c2csc(NC(=O)C3CC(=O)N(Cc4ccco4)C3)n2)cc1 (stereo not drawn)	-1.1	-9.9	-4.9	3.2	2.1	8.3%	0.4	7.7
COc1ccc(-c2cc3c(=O)n(CC(=O)N4CCN(C)CC4)ncn3n2)cc1	-4.5	-19.3	1.5	-0.6	-0.2	.	0.9	4.4
C/C(N)=C(/C#N)C(=O)COC(=O)CNS(=O)(=O)c1ccc(F)c(F)c1F	-2.4	-13.0	-2.9	-3.2	1.1	.	4.0	-0.7
COC(=O)c1ccc(C2C3=C(Nc4nnnn42)c2ccccc2OC3)cc1 (stereo not drawn)	.	2.0	-5.2	-2.1	-0.3	1.6%	1.3	1.2
O=C(CSc1nnc2ccccn12)NCCc1ccc(Cl)cc1	-0.6	-8.0	-3.1	2.2	0.8	4.7%	-7.4	-2.3
Cc1ccc(C(=O)Nc2c(-c3cccs3)c(=O)c3ccccc3n2C)cc1	.	-17.1	-8.0	2.2	1.1	-16.0%	4.8	2.2
COc1ccccc1N1CCN(C(=O)c2cc3cc(F)ccc3[nH]2)CC1	2.5	5.7	1.4	0.5	0.1	4.8%	-3.9	18.4
CC1(C)OC(C)(C)/C(=C/Nc2ccc(O)cc2)C1=O	.	-7.7	1.4	-0.7	0.3	.	0.4	11.7
CCCn1c(SCC(=O)NC2CCCCC2)nnc1-c1ccncc1	.	-7.7	2.3	5.1	0.5	-2.6%	2.9	.
N=c1c(C(=O)NCCc2ccccc2)cc2c(=O)n3ccccc3nc2n1CCCN1CCOCC1	3.6	-2.2	8.1	174.8*	0.2	.	-1.3	-1.1
CC(C)(C)c1ccc(OCC(=O)N/N=C/c2cc(Br)ccc2OC(=O)c2ccco2)cc1	.	-22.4	4.1	-0.5	0.4	-4.3%	3.1	-3.6
CC1CCN(C(=O)CN2C(=O)NC3(CCCCCC3)C2=O)CC1	-7.1	.	3.9	.	-0.2	.	3.6	.
CCOC(=O)Cc1ncccc1C(=O)Nc1ccc(Oc2ccccc2)cc1	-0.3	33.7	8.7	1.4	-0.4	-1.5%	-2.1	32.2
OCC[C@@H]1C[C@@H](O)[C@H](O)[C@@]2(Cc3ccccc3CCO2)O1	4.8	-22.5	-10.1	3.4	0.0	.	1.8	0.8
Cc1oc(-c2ccc(Cl)cc2)nc1CS(=O)CC(=O)NC1CCCCC1 (stereo not drawn)	-1.6	2.8	-3.8	2.5	-0.3	.	-1.8	0.8

Looked up above.
Calb FLC, Cc1ccc(C(=O)Nc2c(-c3cccs3)c(=O)c3ccccc3n2C)cc1 : 2.2
A1 inh, Cc1oc(-c2ccc(Cl)cc2)nc1CS(=O)CC(=O)NC1CCCCC1 (stereo not drawn) : -0.3
T cruzi inh, CCCn1c(SCC(=O)NC2CCCCC2)nnc1-c1ccncc1 : -7.7
T cruzi inh, OCC[C@@H]1C[C@@H](O)[C@H](O)[C@@]2(Cc3ccccc3CCO2)O1 : -22.5

Random draw from the library (roughly 4.3% active in at least one column).
